A1 inh – inhibitors of the anti-apoptotic protein A1, read as caspase activation; MEF A1-2A-BIM cells, Caspase-Glo 3/7 luminescence, 3 h; percent of clofoctol response, vehicle zero; caspase activation, % (no concentration beside the values); 330,000 tested, 0.066% active;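 active = over half of replicate activation scores above 10%, or exactly half above 10 with the replicate mean above 10; inconclusive = replicate mean below 10 yet half the replicates above 10; inactive = over half of replicates below 10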;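 also: wells of about 30 µL received 50 nL stock; many hits fall short of the cut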
AF4-AF9 inh – blocks AF4 peptide binding to human AF9; P42568; AlphaScreen, biotin-AF4 peptide binding to FLAG-AF9; inhibition, % at 10 µM; 350,000 tested, 0.47% active;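 active = every replicate reaching a set inhibition limit, whatever the replicate mean, cut at about 25% in these data; inconclusive = mean inhibition reaches that limit but some replicates miss it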;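 also: 0% = plate neutral control median and 100% = total signal loss; the record names both 10 and 1 µM as test concentration; the first replicate is given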
Target sequence (P42568 whole entry, looked up): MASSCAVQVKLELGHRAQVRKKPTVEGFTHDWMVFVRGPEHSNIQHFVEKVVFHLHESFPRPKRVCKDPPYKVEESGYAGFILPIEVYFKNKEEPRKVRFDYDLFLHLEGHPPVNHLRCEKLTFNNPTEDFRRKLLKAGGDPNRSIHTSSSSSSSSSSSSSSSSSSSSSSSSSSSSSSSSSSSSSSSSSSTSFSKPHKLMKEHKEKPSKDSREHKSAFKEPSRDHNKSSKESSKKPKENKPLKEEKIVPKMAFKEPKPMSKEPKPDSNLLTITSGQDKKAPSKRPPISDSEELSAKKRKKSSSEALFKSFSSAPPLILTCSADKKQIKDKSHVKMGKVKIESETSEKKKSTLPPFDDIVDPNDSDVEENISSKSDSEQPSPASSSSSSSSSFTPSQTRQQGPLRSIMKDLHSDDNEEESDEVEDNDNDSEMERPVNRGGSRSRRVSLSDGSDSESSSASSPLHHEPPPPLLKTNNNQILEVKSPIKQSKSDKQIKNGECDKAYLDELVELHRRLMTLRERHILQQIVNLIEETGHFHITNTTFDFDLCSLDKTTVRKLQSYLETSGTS
Calb FLC – affects C. albicans growth with fluconazole; C. albicans CaCi-2 (fluconazole-resistant clinical isolate) + fluconazole, Alamar Blue growth, 48 h; growth inhibition, % (concentration not given with the values); 300,000 tested, 0.57% active; AID 1979;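 active = most replicates above 75%; inconclusive = exactly half above 75%; inactive = most below 75%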;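 also: all wells also contain fluconazole at 8 µg/ml as a sub-toxic cotreatment; 0% = median of DMSO wells and 100% = median of geldanamycin control wells; wells of about 8 µL received 7.5 nL stock; the first replicate is given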
T cruzi repl – blocks replication of Trypanosoma cruzi. T. cruzi beta-gal in NIH3T3, luminescence, 90 h. inhibition, % (no concentration beside the values). 300,000 tested, 1.4% active. AID 1885;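 active = mean inhibition across valid replicates above about 55%, limit read from the data; inconclusive = mean below that limit but half or more replicates reach it; inactive = mean below it, under half of replicates reach it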;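 also: signal also drops with host cell toxicity which is not excluded here; 0% = plate median of DMSO wells and 100% = zero luminescence signal; higher percent means less beta-gal luminescence so fewer parasites; stock transfer was 50 nL into about 50 µL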
RanGTP-Impb inh – inhibitors of RanGTP-importin-beta interaction, primary screen, biochemical, FRET, CFP-Ran, YFP-importin-beta, homogeneous; cell-free CFP-Ran/YFP-importin-beta FRET ratio; inhibition, % (concentration not given with the values); 300,000 tested, 1.1% active;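 active = most replicates above 15%; inconclusive = exactly half above 15%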;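 also: 0% = DMSO wells and 100% = Ran loaded with GDP instead of GTP; wells of about 40 µL received 100 nL stock; the first replicate is given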
Beta cell apopt – beta cell apoptosis inhibition | INS-1E cytokine-induced death, ATP luminescence, 48 h; percent of positive-control rescue, neutral wells zero | protection from apoptosis, % (concentration not given with the values) | 300,000 tested, 0.8% active;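 active = all replicates at 75% or more, or half of them and the mean; inconclusive = half reach 75% but not the mean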;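 also: 0% = cytokine-treated negative control wells and 100% = positive control rescue; higher means more ATP so stronger rescue from cytokine killing; wells of about 40 µL received 100 nL stock; the first replicate is given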
Vif TR-FRET – inhibitors of Vif binding to APOBEC3G peptide, primary screen, biochemical, TR-FRET, GST-Vif 1-94, biotin-A3G peptide, dose response retest (AID 1117319) | inhibition, %; hits with a dose series show IC50 in µM | 260,000 tested, 0.57% active | TR-FRET GST-Vif / biotin-A3G peptide binding; higher % means a stronger effect; test concentration not given here; strong numbers were not always called active;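 active = above the screen mean plus three standard deviations and confirmed in dose response; inconclusive = results disagree or hit not tested in dose response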;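 also: Vif residues 1-94 fused to GST binding biotinylated APOBEC3G peptide 110-148; 0% = full assay without inhibitor and 100% = GST in place of GST-Vif; retest series ran down from 100 µM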
LANA-H2B inh – blocks KSHV LANA binding to histone H2A/H2B | Q9QR71 | cell-free LANA-H2A/H2B peptide, fluorescence polarization | inhibition, % (no concentration beside the values) | 320,000 tested, 0.6% active | AID 2629; in the data active = inhibition mostly above about 10%, no sharp cut-off; inactive = mostly below about 6.7%;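 also: stock transfer was 7.5 nL into about 10 µL; 0% = median of vehicle wells and 100% = median of positive control wells; one replicate is shown; the record names a cut of 25% in any replicate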
* marks the source's active call; other numbers are inactive results; u = inconclusive; x = not tested or not shown; & = joins results of further samples.

structure | A1 inh | AF4-AF9 inh | Calb FLC | T cruzi repl | RanGTP-Impb inh | Beta cell apopt | Vif TR-FRET | LANA-H2B inh
CCCC(=O)Nc1cc(Cl)ccc1N1CCN(C(=O)CC)CC1 | 0.1 | 0.3 | -7 | 1 | -0.8 | -7 | 0% | -0.7
CC(Oc1ccc2oc(-c3ccccc3)c(C(=O)O)c2c1)C(=O)O (stereo not given) | 0.0 | x | -6 | 2 | -5.7 | -1 | 3% | 1.2
COC(=O)c1sccc1NC(=O)c1ccccc1Br | 0.2 | -5.6 | 49 | 12 | 0.4 | -1 | x | -0.1
Cc1cccn2cc(CNC(=O)C3CCCCC3)nc12 | 1.3 | x | -17 | -18 | -5.1 | 4 | 16% | 4.1
CSc1ccccc1OCc1cc(C(=O)N2CCN(Cc3nccn3C)CC2)no1 | 0.0 | 11 | 2 | 8 | 5.5 | -7 | x | -2.8
O=C(Nc1nnc(COc2ccc(Cl)cc2)s1)c1ccco1 | -0.3 | -2.9 | 54 | 5 | 2.9 | -12 | x | 1.7
COC(=O)c1c(C)[nH]c(C(=O)OCC(=O)c2c(N)n(CC(C)C)c(=O)n(C)c2=O)c1C | 0.3 | 0.7 | x | x | x | 8 | 0% | -4.6
COc1ccc(N=C2SC(C(=O)Nc3ccc4c(c3)OCO4)CC(=O)N2C)cc1 (stereo not given) | 0.1 | 0.7 | 25 | 9 | 4.4 | -7 | 8%&0% | 0.5
COc1ccc(-c2noc(-c3cc(C)cc(C)c3)n2)cc1OC | -0.6 | -1.6 | -7 | 8 | 5.4 | 2 | -1% | 0.6
O=C(CCN1C(=O)C2C3CCC(C3)C2C1=O)OCC(=O)c1cccc([N+](=O)[O-])c1 (stereo not given) | -0.4 | -0.2 | -19 | -15 | -5.3 | 3 | 16% | x
Cc1ccc(C)c(NS(=O)(=O)c2ccc(NC(=O)CSc3ccc(Cl)cc3)cc2)c1 | -0.2 | 2.7 | u | -19 | -0.9 | -9 | -10% | -6.1
COc1ccc(CC(=O)NNC(=O)c2ccco2)cc1 | -1.1 | -9.5 | -1 | -8 | 5.5 | -7 | x | -1.3

(next part)
structure | A1 inh | AF4-AF9 inh | Calb FLC | T cruzi repl | RanGTP-Impb inh | Beta cell apopt | Vif TR-FRET | LANA-H2B inh
CC(=O)Nc1ccc(SC[C@H](Cc2ccccc2)N2CCN(CC(C)C)CCC2=O)cc1 | 0.1 | 7.5 | -12 | 2 | u | 5 | x | 4.0
O=C(CNCc1ccccc1Cl)Nc1ccc2c(c1)OCCO2 | -0.9 | 6.8 | -9 | -9 | 6.7 | 7 | -6% | -1.5
O=C(COC(=O)c1ccccn1)c1ccc(Br)cc1 | 1.2 | x | -7 | -21 | -2.7 | x | 15% | 2.6
O=C(Nc1ccc(F)cc1)C(c1ccccc1)N1CCN(S(=O)(=O)c2ccc3ccccc3c2)CC1 (stereo not given) | 0.6 | 2.8 | u | 29 | -4.9 | 7 | 14µM* | 2.3
CCOc1ccc(NC(=O)CSc2nc3ccccc3nc2N2CCCC2)cc1 | -0.2 | -5.8 | -7 | 8 | 4.0 | -2 | x | 2.1
COc1ccc(CN(C)C(=S)Nc2ccc(Cl)cc2Cl)cc1 | -0.6 | -0.5 | 4 | -10 | -0.1 | -4 | -2% | 2.5
O=[N+]([O-])c1cccc(-c2ccc(C(=S)N3CCN(c4ccccc4)CC3)o2)c1 | -0.7 | -0.7 | 1 | 10 | 0.3 | -7 | 3% | 0.6
Cc1ccc(NC(=O)C2C3CCCC2C3c2ccccc2)cc1C (stereo not given) | -0.8 | x | -5 | -4 | -0.6 | -2 | 2% | -3.9
O=C(CCN1CCN(c2ccccc2)CC1)Nc1ccccc1F | -3.0 | x | -6 | -3 | 6.2 | 1 | 10% | 2.6
CCOC(=O)N1CCC(N2CCN(Cc3ccccc3)C(CCO)C2)CC1 (stereo not given) | 0.5 | -0.1 | -7 | 13 | -0.7 | -6 | 26% | 2.7
O=C(N1CCN(Cc2ccc3c(c2)OCO3)CC1)C12CC3CC(CC(C3)C1)C2 | 0.3 | x | -36 | 18 | 4.3 | 3 | x | -1.2
CC1C(=O)N(Cc2ccccc2F)c2ccccc2N1C(=O)c1c(F)cccc1F (stereo not given) | 0.0 | 0.3 | 3 | 1 | 2.5 | 4 | 0% | -1.7

The listing continues:
structure | A1 inh | AF4-AF9 inh | Calb FLC | T cruzi repl | RanGTP-Impb inh | Beta cell apopt | Vif TR-FRET | LANA-H2B inh
Brc1ccc(C2=Nn3c(nnc3-c3n[nH]c4c3CCC4)SC2)cc1 | -0.5 | x | 20 | 7 | -2.0 | 9 | -10%&-2% | -1.0
O=C(O)c1ccccc1N/N=C/C1=C(N2CCOCC2)C(=C\c2ccccc2)/CC1 | 0.2 | 12 | -3 | -15 | -16 | -1 | u | 7.6
CCCn1c(SCc2nc3sc(C)c(C)c3c(=O)[nH]2)nc2ccccc2c1=O | -0.2 | x | 42 | -2 | -5.5 | -2 | 0% | -1.5
O=C(NCCN1CCN(c2cccc(Cl)c2)CC1)C1CCCN(S(=O)(=O)c2cnc[nH]2)C1 (stereo not given) | 0.9 | 1.6 | x | x | x | x | 5% | 3.4
CC(=O)c1cccc(NC(=O)c2ccc(S(=O)(=O)N3CCCCC3)cc2)c1 | 0.5 | x | 3 | 3 | 1.7 | x | 17% | -1.6
CC(C)(C)c1cn(-c2ccccc2)c(=S)[nH]1 | -0.4 | x | 0 | -7 | 5.1 | -9 | -176% | -1.1
Cc1ccc(CNC(=O)c2ccc3c(=O)n4c(-c5ccc(C)cc5)csc4nc3c2)cc1 | u | 1.2 | -12 | 3 | -3.4 | 11 | -31% | -1.0
Cc1ccc(S(=O)(=O)CC(=O)c2ccc([N+](=O)[O-])cc2)cc1 | 0.7 | -1.0 | 1 | -15 | 0.9 | 0 | -3% | 0.3
Cc1cccc(N2CCN(C(=O)c3cccc(S(=O)(=O)N4CCc5ccccc5C4)c3)CC2C)c1 (stereo not given) | -0.5 | u | 9 | 11 | 2.4 | 58 | x | 0.3
Cc1cccc(-n2c(SCC(=O)Nc3ccc4c(c3)OCO4)nnc2-c2ccoc2C)c1 | 0.9 | x | -18 | -1 | 0.1 | -5 | -4% | -3.4
CCC(C(=O)NCc1ccco1)N(C(=O)CNS(=O)(=O)c1ccccc1)C1CCCCC1 (stereo not given) | -0.3 | -4.3 | 11 | 13 | u | 1 | 1% | -10
C=CCNC(=O)c1cn(CC)c2cc(N3CCN(C(=O)c4ccco4)CC3)c(F)cc2c1=O | -0.2 | 1.1 | -2 | 8 | 1.0 | 8 | x | -7.0

(list continues)
structure | A1 inh | AF4-AF9 inh | Calb FLC | T cruzi repl | RanGTP-Impb inh | Beta cell apopt | Vif TR-FRET | LANA-H2B inh
COCCCn1c(C(=O)NC2CCCCC2C)cc2c(=O)n3cccc(C)c3nc21 (stereo not given) | 2.0 | -1.6 | 28 | 18 | 5.6 | 4 | x | 3.1
CCC1CCCCN1CCCNC(=O)CN1C(=O)c2cccnc2Oc2ccc(Cl)cc21 (stereo not given) | -1.8 | -6.3 | -4 | 24 | 1.2 | -2 | -3% | 2.4
Cc1ccc(S(=O)(=O)c2cc3c(=O)n4cccc(C)c4nc3n(C3CCCCC3)c2=N)cc1 | -0.6 | x | 6 | 10 | 34* | x | x | -2.8
CCNC(=O)OCc1cn(-c2ccccc2)nn1 | 0.3 | -1.8 | -2 | 0 | u | -2 | x | -2.1
CCCC(=O)C1=C(SCC)CC(C)(C)C(C(=O)OC)C1=O (stereo not given) | 0.0 | x | -10 | 3 | -4.1 | 2 | 3% | -2.6
Cc1ccccc1-c1nn2c(-c3ccccc3)nnc2s1 | -0.3 | x | -8 | 4 | 1.7 | 4 | 1% | -4.7
Cc1cc(C)c(C)c(S(=O)(=O)NC2CCN(Cc3ccccc3)CC2)c1C | 0.4 | 4.4 | -20 | 26 | 9.5 | 6 | -13% | -14
CCCNC(=O)c1ccccc1NC(=O)c1ccccc1N(C)S(C)(=O)=O | -0.3 | x | 1 | -5 | u | -1 | u | -3.1
COc1ccnc(Oc2ccccc2)c1C(=O)N/C=N/OCc1ccc(F)cc1Cl | 0.0 | x | 0 | 8 | 2.0 | 9 | -1% | -0.8
Nc1c(C(=O)CSc2ncccn2)c(=O)[nH]c(=O)n1C1CC1 | -0.3 | 1.3 | x | x | x | -8 | 6% | -3.4
CCN1CN(Cc2ccccc2)CNC1=S | -0.6 | x | 2 | -31 | 4.0 | -2 | 6% | -1.3
C[C@@H]1COC(=O)[C@@H](Cc2ccc(F)cc2)C/C=C\C[C@@H](CC(=O)NCCO)C(=O)N1 | 0.6 | -1.6 | x | x | x | 3 | 5% | -137

Carrying on.
structure | A1 inh | AF4-AF9 inh | Calb FLC | T cruzi repl | RanGTP-Impb inh | Beta cell apopt | Vif TR-FRET | LANA-H2B inh
Cc1cc(NC(=O)CSc2cc(Cl)ccc2Cl)n(-c2ccccc2)n1 | -1.0 | -11 | 8 | 4 | 2.7 | -2 | 9% | 1.3
Cc1ccc(S(=O)(=O)N2CCC(C(=O)N[C@@H](Cc3ccccc3)C(=O)O)CC2)cc1 | -0.2 | x | -1 | -11 | 1.9 | -1 | 8% | 0.0
Cc1ccc(C(=O)Oc2ccc(/C=N/NC(N)=O)cc2)cc1 | -1.4 | -2.1 | -8 | 6 | -2.0 | -3 | -5% | -2.5
CCOC(=O)c1c(NC(=O)CN2C(=O)NC(C)(c3ccccc3)C2=O)sc(C)c1C (stereo not given) | -0.1 | -0.5 | 1 | 20 | -3.9 | 2 | -1% | 1.8
O=C(c1c[nH]c(C(=O)C(Cl)(Cl)Cl)c1)c1ccc(F)cc1Cl | 1.4 | 0.0 | -16 | -23 | 1.9 | -36 | 6% | -2.1
O=C(CCC1CCCN(C(=O)CCN2CCCCC2=O)C1)NCc1ccccc1F (stereo not given) | 0.5 | -10 | -10 | 5 | u | -6 | 11% | 8.1
CCCOc1ccc(-c2nc(=S)[nH][nH]2)cc1 | 0.0 | x | -32 | -3 | -3.0 | -2 | -1% | -4.6
Cc1ccc(/C=C2\SC(=S)N(CCC(=O)NNC(=O)c3cccnc3)C2=O)cc1 | -0.3 | x | 9 | 4 | -1.0 | -3 | 15% | 3.2
Cc1ccc(SCc2[nH]nc3c2C(C(C)C)C(C#N)=C(N)O3)cc1 (stereo not given) | 2.9 | x | 33 | -6 | -2.8 | -14 | 4% | -1.9
O=C(Nc1ccc(C(=O)O)cc1)/C(=C\c1ccc2c(c1)OCO2)NC(=O)c1ccc(Br)cc1 | -0.1 | -0.3 | -9 | 5 | -1.6 | 2 | 7% | 4.6
CC1CCN(C(=O)c2nc[nH]c2C(=O)N2CCC(C)CC2)CC1 | -0.4 | -7.0 | x | x | x | -1 | x | -2.4
O=C(NCCCc1ccccc1)c1cccc(S(=O)(=O)N2CCOCC2)c1 | 1.4 | 0.8 | x | x | x | 1 | -2% | -0.5
COc1cc(/C=N/N=C2/NC(=O)C(Cc3ccc(F)cc3)S2)ccc1O (stereo not given) | 0.0 | -12 | -7 | 7 | 1.7 | x | 2% | -3.6
Cc1ccc(-c2n[nH]c(=O)c3ccccc23)cc1S(=O)(=O)N(C)C | 1.2 | 4.2 | 29 | 1 | 6.8 | 3 | x | 1.5

Rows are unselected; overall some 4.3% were active at least once.
